Bioassay records (PubChem)
Polio RdRp inh: poliovirus RNA polymerase inhibition. poliovirus polymerase elongation, fluorescence polarization; active compounds read low. AID 588519. % elongation, % (compound at 16.7 µg/mL). actives 0.66% (n = 150,000). P03300; in the data active = % elongation below about 90%; note: some results filed as inactive read as strong as hits
Target sequence (P03300 1749-2209 limits assumed): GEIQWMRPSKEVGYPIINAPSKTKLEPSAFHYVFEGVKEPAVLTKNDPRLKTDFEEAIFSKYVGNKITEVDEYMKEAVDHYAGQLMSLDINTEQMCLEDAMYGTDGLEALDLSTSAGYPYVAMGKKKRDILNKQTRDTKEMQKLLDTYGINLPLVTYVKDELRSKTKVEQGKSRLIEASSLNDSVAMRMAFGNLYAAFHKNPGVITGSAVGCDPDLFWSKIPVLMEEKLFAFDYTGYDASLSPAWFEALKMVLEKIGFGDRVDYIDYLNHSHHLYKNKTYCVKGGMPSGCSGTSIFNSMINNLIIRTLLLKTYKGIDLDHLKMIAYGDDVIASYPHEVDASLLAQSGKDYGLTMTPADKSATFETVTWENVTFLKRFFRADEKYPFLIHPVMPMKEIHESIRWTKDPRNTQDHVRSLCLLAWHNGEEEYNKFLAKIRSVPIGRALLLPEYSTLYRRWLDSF
MenB inh: Mtb MenB enzyme inhibition; P9WNP5; MenB enzyme assay, absorbance read-out; some hits fall short of the stated cut; inhibition, %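 (about 12 µg/mL by stock and volumes)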; actives 0.43% (n = 100,000); AID 540299;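 active = mean of two replicates above 30%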;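 note: 0% = no compound and 100% = wells with inactive enzyme; the first replicate is given; strong numbers were not always called active; inactives centre near -10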
Target sequence (P9WNP5 whole entry, looked up): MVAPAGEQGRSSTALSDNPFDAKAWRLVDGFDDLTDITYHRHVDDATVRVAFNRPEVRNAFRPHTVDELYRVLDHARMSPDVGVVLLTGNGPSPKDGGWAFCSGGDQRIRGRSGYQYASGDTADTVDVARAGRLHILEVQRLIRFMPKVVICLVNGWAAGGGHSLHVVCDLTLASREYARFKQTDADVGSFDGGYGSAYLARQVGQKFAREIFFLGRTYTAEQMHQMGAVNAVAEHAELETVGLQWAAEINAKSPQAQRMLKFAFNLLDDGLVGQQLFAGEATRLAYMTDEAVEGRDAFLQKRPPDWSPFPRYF
MbtI inh: inhibitors of Mycobacterium tuberculosis siderophore enzyme MbtI; P9WFX0; purified MbtI enzyme, fluorescence intensity read-out; inhibition, %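 (about 17 µg/mL by stock and volumes)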; actives 0.89% (n = 100,000);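 active = above 50% in both replicates, above 80% if mildly self-fluorescent; inactive = the rest, strongly fluorescent compounds included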;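 note: 0% = mean of negative and 100% = mean of positive controls; one replicate is shown; some compounds called inactive have numbers as strong as hits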
Polio RdRp inh intensity: also measured in Polio RdRp inh; calls as there; % elongation; measured here: total intensity read-out; formula for this scale not given here;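 total fluorescence in place of polarization; lower means less elongation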
Active calls of the source: *.

`N#Cc1ccc(COC(=O)CCc2nnc(-c3ccccc3)o2)cc1` gave Polio RdRp inh 106, MenB inh -25, MbtI inh -7 and Polio RdRp inh intensity 110.
For CCn1nnc2c(N(Cc3ccccc3)Cc3ccccc3)ncnc21 the results were Polio RdRp inh 100, MenB inh -58, MbtI inh 93 and Polio RdRp inh intensity 104.
Screening CC(C)(CCl)Nc1nc2ccccc2s1 returned Polio RdRp inh 103, MbtI inh -1 and Polio RdRp inh intensity 107.
`CC(=O)Nc1ccc2c(c1)CN(C1CCCCC1)CO2` gave Polio RdRp inh 102, MenB inh -9, MbtI inh -7 and Polio RdRp inh intensity 96.
For COC(=O)c1c(C)oc2ccc(OCc3ccccc3C)cc12 the results were Polio RdRp inh 103, MenB inh -12, MbtI inh -4 and Polio RdRp inh intensity 109.
COC(=O)c1sccc1NC(=S)Nc1ccccc1 was read as Polio RdRp inh 102, MenB inh -12, MbtI inh 18 and Polio RdRp inh intensity 95.
For Cc1ccc(Cn2c(N)nc3ccccc32)cc1 the results were Polio RdRp inh 102, MbtI inh 0 and Polio RdRp inh intensity 97.
O=C1CCCN1C(=O)CSc1nc2ccccc2n1-c1ccccc1 was read as Polio RdRp inh 107, MenB inh -11, MbtI inh 3 and Polio RdRp inh intensity 110.
N#Cc1ccc(Oc2c(Cl)cncc2Cl)cc1 was read as Polio RdRp inh 100, MenB inh 3, MbtI inh -5 and Polio RdRp inh intensity 102.
For Cc1ccc(S(=O)(=O)N(C)CC(=O)Nc2cccnc2)cc1 the results were Polio RdRp inh 101, MenB inh -21, MbtI inh -9 and Polio RdRp inh intensity 101.
COc1cccc(CO)c1OCc1ccccc1F was read as Polio RdRp inh 101, MenB inh -68, MbtI inh 1 and Polio RdRp inh intensity 103.
For Fc1ccc(CNc2ccc(N3CCCC3)cc2)cc1 the results were Polio RdRp inh 98, MenB inh 27, MbtI inh 21 and Polio RdRp inh intensity 101.
For CCCCNC(=O)CC1NCCNC1=O (stereo not given) the results were Polio RdRp inh 100, MenB inh -66, MbtI inh 4 and Polio RdRp inh intensity 106.
Screening COc1ccc2c(C)nc(NC3=NC(C)(C)CC(C)=N3)nc2c1 returned Polio RdRp inh 99, MenB inh -50, MbtI inh 9 and Polio RdRp inh intensity 100.
Screening CCCNC(=O)c1ccc2c(c1)c(C)c(C)n2CC returned Polio RdRp inh 105, MenB inh 3, MbtI inh -150 and Polio RdRp inh intensity 115.
`COc1ccc(OC)c(S(=O)(=O)N2CCc3cc(OC)c(OC)cc3C2)c1` gave Polio RdRp inh 99, MenB inh 9, MbtI inh 13 and Polio RdRp inh intensity 102.
Screening O=C1CSC(=S)N1CCCCCCN1C(=O)CSC1=S returned Polio RdRp inh 101, MenB inh 15, MbtI inh 1 and Polio RdRp inh intensity 102.
Screening c1ccc(N2CCN(CCc3nnc4n3CCCCC4)CC2)cc1 returned Polio RdRp inh 102, MbtI inh -20 and Polio RdRp inh intensity 101.
`CCN(CC)C(=O)c1cc(-c2cc(C(=O)N(CC)CC)c3ccccc3n2)nc2ccccc12` gave Polio RdRp inh 101, MenB inh -12, MbtI inh -3 and Polio RdRp inh intensity 98.
CCOc1nc2ccccc2nc1NS(=O)(=O)c1ccccc1 was read as Polio RdRp inh 104, MenB inh -26, MbtI inh 9 and Polio RdRp inh intensity 99.

Part of the list above in order of SMILES length, rising:
For CCCCNC(=O)CC1NCCNC1=O (stereo not given) the results were Polio RdRp inh 100, MenB inh -66, MbtI inh 4 and Polio RdRp inh intensity 106.
COc1cccc(CO)c1OCc1ccccc1F was read as Polio RdRp inh 101, MenB inh -68, MbtI inh 1 and Polio RdRp inh intensity 103.
N#Cc1ccc(Oc2c(Cl)cncc2Cl)cc1 was read as Polio RdRp inh 100, MenB inh 3, MbtI inh -5 and Polio RdRp inh intensity 102.
For Fc1ccc(CNc2ccc(N3CCCC3)cc2)cc1 the results were Polio RdRp inh 98, MenB inh 27, MbtI inh 21 and Polio RdRp inh intensity 101.
Screening O=C1CSC(=S)N1CCCCCCN1C(=O)CSC1=S returned Polio RdRp inh 101, MenB inh 15, MbtI inh 1 and Polio RdRp inh intensity 102.
CCOc1nc2ccccc2nc1NS(=O)(=O)c1ccccc1 was read as Polio RdRp inh 104, MenB inh -26, MbtI inh 9 and Polio RdRp inh intensity 99.
O=C1CCCN1C(=O)CSc1nc2ccccc2n1-c1ccccc1 was read as Polio RdRp inh 107, MenB inh -11, MbtI inh 3 and Polio RdRp inh intensity 110.
For Cc1ccc(S(=O)(=O)N(C)CC(=O)Nc2cccnc2)cc1 the results were Polio RdRp inh 101, MenB inh -21, MbtI inh -9 and Polio RdRp inh intensity 101.
`COc1ccc(OC)c(S(=O)(=O)N2CCc3cc(OC)c(OC)cc3C2)c1` gave Polio RdRp inh 99, MenB inh 9, MbtI inh 13 and Polio RdRp inh intensity 102.
`CCN(CC)C(=O)c1cc(-c2cc(C(=O)N(CC)CC)c3ccccc3n2)nc2ccccc12` gave Polio RdRp inh 101, MenB inh -12, MbtI inh -3 and Polio RdRp inh intensity 98.

Later entries:
`CCN=C1NN=C(c2cc(C)n(Cc3ccco3)c2C)CS1` gave Polio RdRp inh 102, MenB inh -14, MbtI inh 6 and Polio RdRp inh intensity 103.
For COc1ccc2oc(=O)c(-c3nc4ccccc4c(=O)[nH]3)cc2c1 the results were Polio RdRp inh 101, MenB inh 12, MbtI inh 1 and Polio RdRp inh intensity 102.
CN(C)c1ccc(N=Cc2nc(-c3ccccc3)oc2O)cc1 was read as Polio RdRp inh 102, MenB inh -28, MbtI inh -5 and Polio RdRp inh intensity 118.
Screening O=C(NCCN1CCN(Cc2ccccc2)CC1)Nc1ccc(F)cc1 returned Polio RdRp inh 101, MenB inh -5, MbtI inh 1 and Polio RdRp inh intensity 101.
Screening CCOC(=O)CSCC1=C(C(=O)OCC)CNC(=O)N1 returned Polio RdRp inh 97, MenB inh -38, MbtI inh 66 and Polio RdRp inh intensity 107.
Screening Cn1ccnc1C(=O)c1cccc(Br)c1 returned Polio RdRp inh 101, MbtI inh 5 and Polio RdRp inh intensity 100.
`Nn1c(SCC(=O)N2CCCC2)nnc1C1CCCCC1` gave Polio RdRp inh 102, MenB inh -18, MbtI inh -8 and Polio RdRp inh intensity 95.
For NNC(=O)CN1C(=O)Nc2ccc(Br)cc2C1c1ccccc1 (stereo not given) the results were Polio RdRp inh 104, MenB inh -8, MbtI inh 2 and Polio RdRp inh intensity 102.
For Cc1ccc(OCCN2CCN(C(=O)CSc3nc4ccccc4nc3N3CCCC3)CC2)cc1 the results were Polio RdRp inh 102, MenB inh -9, MbtI inh -1 and Polio RdRp inh intensity 100.
For Cc1ccc2nc(N3CCN(Cc4nnnn4C4CCCC4)CC3)c(C#N)cc2c1 the results were Polio RdRp inh 102, MenB inh 5, MbtI inh -3 and Polio RdRp inh intensity 101.
Screening COc1ccc(CNC(=O)CSc2nc3cc4c(cc3cc2C#N)OCCO4)cc1 returned Polio RdRp inh 102, MenB inh 23, MbtI inh 6 and Polio RdRp inh intensity 104.
Screening Nc1nc(/C(=C/CC(=O)O)C(=O)N[C@@H]2C(=O)N3C(C(=O)O)=CCS[C@H]23)cs1 returned Polio RdRp inh 100, MenB inh 2, MbtI inh -7 and Polio RdRp inh intensity 104.
Screening Cc1sc2c(c1C)c(=O)n(-c1ccc(Cl)cc1)c(=O)n2CC(=O)N1CCCCC1C (stereo not given) returned Polio RdRp inh 100, MenB inh -21, MbtI inh 1 and Polio RdRp inh intensity 98.
`CC(C)N(C(=O)NC(=O)Nc1cccc2ccccc12)S(C)(=O)=O` gave Polio RdRp inh 100, MenB inh 14, MbtI inh 104 and Polio RdRp inh intensity 96.
CCCc1cnc(N2CCN(S(=O)(=O)c3cccs3)CC2)nc1 was read as Polio RdRp inh 104, MenB inh 19, MbtI inh -6 and Polio RdRp inh intensity 111.
Screening Cc1ccc(C)c(N2N=C(C(=O)OCC(=O)NC3CC3)CCC2=O)c1 returned Polio RdRp inh 101, MenB inh -9, MbtI inh 11 and Polio RdRp inh intensity 104.
`CCCn1c(C)cc(C(=O)CSc2nnc(-c3ccccc3)n2C)c1C` gave Polio RdRp inh 100, MenB inh -14, MbtI inh 0 and Polio RdRp inh intensity 99.
`O=C(CC(O)(c1ccccc1)c1ccccc1)Nc1ccccc1` gave Polio RdRp inh 108, MenB inh -3 and Polio RdRp inh intensity 114.
`CN1/C(=C\C(=O)C(F)F)C(C)(C)c2ccccc21` gave Polio RdRp inh 99, MenB inh -119, MbtI inh -22 and Polio RdRp inh intensity 100.
For CCOC(=O)/C=c1\s/c(=C\c2ccc(OC)cc2)c(=O)n1C the results were Polio RdRp inh 106, MenB inh -11, MbtI inh 0 and Polio RdRp inh intensity 101.
`Cc1ccccc1N1CC(C(=O)N2CC(C)CC(C)C2)CC1=O` (stereo not given) gave Polio RdRp inh 104, MenB inh -58, MbtI inh -4 and Polio RdRp inh intensity 103.
For O=C(O)CC12CC3CC(CC(O)(C3)C1)C2 the results were Polio RdRp inh 100, MbtI inh -17 and Polio RdRp inh intensity 98.
CCOC(=O)c1sc2nc3c(cc2c1N)COC(C)(C)C3 was read as Polio RdRp inh 100, MenB inh -16, MbtI inh -2 and Polio RdRp inh intensity 100.
COc1cccc([C@H]2C(C#N)=C(N)C(C#N)(C#N)C3=CCC(C)C[C@@H]32)c1 (stereo not given in full) was read as Polio RdRp inh 105, MenB inh -24 and Polio RdRp inh intensity 125.
For CCc1ccc(Nc2cc(C(=O)O)c3ccccc3n2)cc1 the results were Polio RdRp inh 102, MenB inh -10, MbtI inh 4 and Polio RdRp inh intensity 103.
O=C(COC(=O)CC1CCCC1)Nc1cc(C(F)(F)F)ccc1N1CCOCC1 was read as Polio RdRp inh 104, MenB inh 15, MbtI inh -3 and Polio RdRp inh intensity 108.
`O=c1c(N2CCN(c3ccccc3)CC2)csc2ccccc12` gave Polio RdRp inh 101, MenB inh -201, MbtI inh 7 and Polio RdRp inh intensity 103.
`CCS(=O)(=O)N1CCN(Cc2noc(CCC(=O)N3CCCCC3)n2)CC1` gave Polio RdRp inh 101, MenB inh -42, MbtI inh 1 and Polio RdRp inh intensity 100.
`O=C(Cn1cc(/C=N/NC(=S)Nc2ccccc2)c2ccccc21)NCc1ccco1` gave Polio RdRp inh 102, MenB inh -15, MbtI inh -6 and Polio RdRp inh intensity 101.
For CN(CCOc1ccc(CC2SC(=O)NC2=O)cc1)c1ccccn1 (stereo not given) the results were Polio RdRp inh 100, MenB inh -4, MbtI inh -142 and Polio RdRp inh intensity 102.
`N#Cc1ccc(-c2c(NC(=O)NS(=O)(=O)c3ccccc3Cl)oc(-c3ccco3)c2C#N)cc1` gave Polio RdRp inh 110, MenB inh -17, MbtI inh -12 and Polio RdRp inh intensity 135.
`C=CCN(CC=C)C(=O)c1ccc(I)cc1` gave Polio RdRp inh 100, MbtI inh -5 and Polio RdRp inh intensity 97.
`C=C(C)c1cccc(C(C)(C)NC(=O)N2CCC(C)CC2)c1` gave Polio RdRp inh 103, MenB inh -5, MbtI inh 2 and Polio RdRp inh intensity 101.
C/C(=N\OCC(=O)Nc1nc2ccccc2s1)c1cccs1 was read as Polio RdRp inh 100, MenB inh -28, MbtI inh -2 and Polio RdRp inh intensity 101.
`Cc1cc(C)cc(NC(=O)N2CCOc3ccc(C)cc32)c1` gave Polio RdRp inh 103, MenB inh -6, MbtI inh -15 and Polio RdRp inh intensity 107.
Screening CCc1ccc(C(=O)N2CCN(c3ccc(N)cc3)CC2)cc1 returned Polio RdRp inh 100, MenB inh 8, MbtI inh -4 and Polio RdRp inh intensity 102.
CC(C)c1ccc(NC(=O)COC(=O)c2ccc[nH]c2=O)cc1 was read as Polio RdRp inh 96, MenB inh 3, MbtI inh -4 and Polio RdRp inh intensity 108.
`Nc1c2ccccc2nc2c(O)cccc12` gave Polio RdRp inh 101, MenB inh -1, MbtI inh 4 and Polio RdRp inh intensity 102.
Screening O=C(NC12CCC(O)C(SC1)C2O)c1ccccc1 (stereo not given) returned Polio RdRp inh 101, MenB inh 27, MbtI inh -8 and Polio RdRp inh intensity 102.
Screening Cc1cccc(NC(=O)c2cc3c([nH]c2=O)CCCC3=O)n1 returned Polio RdRp inh 101, MenB inh 1, MbtI inh -3 and Polio RdRp inh intensity 107.
COc1ccc(Sc2nncc3nnn(-c4ccc(Cl)cc4)c23)cc1 was read as Polio RdRp inh 103, MenB inh -31, MbtI inh 23 and Polio RdRp inh intensity 98.
`COC(=O)c1ccc2c(=O)n(CC3CCCO3)c(SCC(=O)Nc3ccccc3Cl)nc2c1` (stereo not given) gave Polio RdRp inh 100, MenB inh -24, MbtI inh 15 and Polio RdRp inh intensity 98.
`O=C(CCC(=O)n1ncc2ccc(Cl)cc21)NCc1cccnc1` gave Polio RdRp inh 102, MenB inh 3, MbtI inh 7 and Polio RdRp inh intensity 103.
`Oc1ccccc1N=Cc1ccc2ncccc2c1` gave Polio RdRp inh 102, MbtI inh -1 and Polio RdRp inh intensity 105.
For COc1ccc2[nH]c3c(=O)n(CC(=O)NC4CCCCCC4)c(=S)[nH]c3c2c1 the results were Polio RdRp inh 103, MenB inh -17, MbtI inh 4 and Polio RdRp inh intensity 104.
Screening COc1ccccc1OCC(=N)N returned Polio RdRp inh 103, MenB inh -23, MbtI inh -2 and Polio RdRp inh intensity 101.
